High-throughput results: PubChem BioAssay, ICCB-Longwood Screening Facility, Harvard Medical School
CapD inh = Bacillus anthracis CapD inhibitors, primary screen, biochemical, fluorescence intensity | purified CapD enzyme, fluorescence intensity read-out; active compounds read low; some hits fall short of the stated cut | CapD gamma-glutamyltranspeptidase (Bacillus anthracis Ames Ancestor) | AID 492967, 2010 | z-score (test concentration not listed) | 140,000 tested, 0.23% active;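 active = z-score under -4 in either of two replicates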;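 note: stock transfer was 100 nL into about 40 µL; score is relative to mean and spread of the plate; one replicate is shown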
AID504770 = growth inhibition of E. coli YBA685, primary screen, V. cholerae RctB inhibitors. 130,000 tested, 0.27% active. z-score (test concentration not listed). E. coli YBA685 rctB-dependent plasmid, OD600 growth, 3 h; active compounds read low. AID 504770, 2011;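 active = z-score under -2 on both plates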;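 note: wells of about 30 µL received 100 nL stock; score is relative to mean and SD of the test wells; the first replicate is given; strong numbers were not always called active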
Active calls of the source: *; i = inactive; · = not tested or not shown.

SMILES	CapD inh	AID504770
c1ccc(C2=Nc3ccccc3Oc3ccccc32)cc1	-0.76	-0.1
FC(F)(F)c1cc(-c2cc(C(F)(F)F)cc(C(F)(F)F)c2)cc(C(F)(F)F)c1	0.27	·
CN(Cc1ccc(OC(F)F)cc1)C(=O)c1ccc(S(C)(=O)=O)cc1	·	-0.35
CC1=CC(=O)N(CCc2c[nH]c3ccc(OCc4ccccc4)cc23)C1=O	-0.28	-0.35
COc1ccc(NC(=O)C2C3CCCCC32)cc1 (configuration not stated)	0.45	0.75
COc1cc(-c2[nH]nc3c2C(c2cc(OC)c(OC)c(OC)c2)C(C#N)=C(N)O3)cc(OC)c1OC (configuration not stated)	-0.41	·
Cn1nccc1NC(=O)Nc1cc(Cl)cc(Cl)c1	0.34	·
O=c1c2ccccc2nc2n1C(CSc1ccc(Cl)cc1)CS2 (configuration not stated)	0.04	·
O=C(CSc1n[nH]c(=O)n1Cc1ccccc1)Nc1ccc2c(c1)CCC2	·	0.35
CCOC(=O)C1CCN(C(=O)Cn2c(=O)c3ccccc3n(CC)c2=O)CC1	4	·
COc1cc(OC)cc(C(=O)Nc2ccccc2N2CCN(C)CC2)c1	-0.73	0.85
C=CCn1c(SCC(=O)O)nnc1-c1ccccc1	-1	·
O=C(Nc1ccccc1C(F)(F)F)c1cc2nc(-c3ccco3)cc(C(F)(F)F)n2n1	0.28	·
CN(CC(=O)N1CCN(c2ccccc2)CC1)S(=O)(=O)c1cc2c(cc1Cl)NC(=O)CO2	0.62	-1.1
COc1ccc(C2c3c(oc4ccccc4c3=O)C(=O)N2Cc2ccncc2)cc1 (configuration not stated)	·	-0.25
COc1ccccc1CNC(=O)Cn1c(=O)cnc2ccccc21	·	0.15
CCOC(=O)C1=C(O)/C(=C/c2cc(OC)c(OC)c(OC)c2)SC1=Nc1ccccc1	-0.04	·
CCOC(=O)c1ccc(N=Cc2ccc3c(c2)OCO3)cc1	-0.59	2.9
CC(C)n1c(C(=O)OC(C(=O)NCc2ccco2)c2cccnc2)cc2sccc21 (configuration not stated)	·	1
COc1ccccc1NC(=O)CCCN1C(=O)/C(=C/c2cccc(Br)c2)SC1=S	-0.05	·
CCN(CC)C(C(=O)NC1CCCCC1)c1ccc(OC)cc1 (configuration not stated)	-0.02	-1.3
COc1ccc(-c2nn(-c3ccccc3)cc2C2CC(c3ccc(Br)cc3)=NN2C(=O)CCC(=O)O)cc1 (configuration not stated)	0.3	·
Cc1cccc(NC(=O)c2ccccc2NC(=O)CN2CSCC2=O)c1	·	-2.8
CCC1=NN(C(=O)c2cccc(Br)c2)C(O)(C(F)(F)F)C1 (configuration not stated)	0.5	·
Oc1ccc(N2CCNCC2)cc1	·	0.65
CCN(CC)c1nc(N2CCOCC2)nc(N2CC(=O)N(c3ccccc3)C2=N)n1	-0.76	-0.1
CCCOc1ccc(C(=O)c2nc3c(n2O)CCCCC3)cc1	-0.78	-0.15
O=C(c1ccc2c(c1)ncn2-c1ccc(OCc2ccccc2)cc1)N1CCC2(CC1)OCCO2	-2	·
CCn1c2ccccc2c2cc(NC(=O)C(C)OC(=O)c3cccn3C)ccc21 (configuration not stated)	·	0.4
N#C/C(=C\c1cn(CC(=O)N2CCCC2)c2ccccc12)C(=O)NCc1ccc2c(c1)OCO2	·	0.55

Profiles, looked up by structure. Order of screens: CapD inh, AID504770
Shown for CC(C)n1c(C(=O)OC(C(=O)NCc2ccco2)c2cccnc2)cc2sccc21 (configuration not stated) → ·, 1
Shown for COc1ccc(-c2nn(-c3ccccc3)cc2C2CC(c3ccc(Br)cc3)=NN2C(=O)CCC(=O)O)cc1 (configuration not stated) → 0.3, ·
Shown for CCN(CC)c1nc(N2CCOCC2)nc(N2CC(=O)N(c3ccccc3)C2=N)n1 → -0.76, -0.1

3 records drawn at random from the list so far:
SMILES	CapD inh	AID504770
CCOC(=O)c1ccc(N=Cc2ccc3c(c2)OCO3)cc1	-0.59	2.9
O=c1c2ccccc2nc2n1C(CSc1ccc(Cl)cc1)CS2 (configuration not stated)	0.04	·
CN(CC(=O)N1CCN(c2ccccc2)CC1)S(=O)(=O)c1cc2c(cc1Cl)NC(=O)CO2	0.62	-1.1

Next structures:
SMILES	CapD inh	AID504770
CCN(CC(=O)NCc1ccc(F)cc1)C(=O)C1CC1C (configuration not stated)	·	-0.3
CCOC(=O)c1c(NC(=O)CSc2nnc(CNC(=O)c3ccc(OC)c(OC)c3)n2C)sc2c1CCCC2	-0.39	·
COC(=O)Nc1cc(C)n(-c2ccccc2)n1	1.3	0.25
Cc1cnc(C(=O)Nc2ccc(N3CCN(C(=O)OC(C)(C)C)CC3)cc2)cn1	·	0.3
N#Cc1cccc(OCC(=O)c2ccc[nH]2)c1	·	-0.65
Cc1c(OC(=O)c2ccco2)ccc2c1CCCC2	-0.55	0.05
CC(C)c1cc(NC(=O)COC(=O)c2ccccc2-n2cnnn2)on1	·	-0.65
O=C(NC(=S)N1CCCc2ccccc21)c1ccco1	·	0.7
CCc1cccc(CC)c1N(C)C(=O)c1cnccc1C(F)(F)F	-0.69	-1.2
O=C(Nc1nccs1)c1ccc(S(=O)(=O)N2CCCCC2)cc1	2	-0.8
COc1cccc(-n2c(SCC(=O)Nc3nccs3)nc3c([nH]c4ccccc43)c2=O)c1	2	-0.7
O=C(c1cn(-c2ccccc2)nc1-c1ccncc1)N1CCCCC1	1.3	0.6
COc1cc(C2/C(=C(\O)c3ccccc3)C(=O)C(=O)N2CCC(=O)O)ccc1O (configuration not stated)	·	-0.05
COc1ccc(OCCSc2nnc3sc4ccccc4n23)cc1	·	0.3
O=C(O)CSCc1cc2cccc3c2n(c1=O)CCC3	2.5	·
CC1Cc2c([nH]c3ccccc23)C(=O)N1 (configuration not stated)	47	0.2
CCOC(=O)c1c(C)[nH]c(C(=O)C(C)Sc2nnnn2-c2cc(C)ccc2OC)c1C (configuration not stated)	·	-0.25
CC(=O)O[C@H]1[C@H](OC(C)=O)[C@H](OC(C)=O)CO[C@@H]1c1nc2ccccc2s1	0.9	-0.4
Cc1c(C)c2c(=O)n(-c3ccccc3)[nH]c2[nH]c1=O	-0.77	1.4
COC(=O)CN1C(=O)COc2cc(S(=O)(=O)N3CCCc4ccccc43)ccc21	-0.12	-0.4
Cc1cccc(NC(=O)CSc2nnnn2-c2ccccc2)c1	i	0.55
Cc1cc(=O)oc2cc(OC(C)C(=O)NC3(C#N)CCCCC3)ccc12 (configuration not stated)	·	3
O=C(CSc1nc2ccccc2c(=O)n1CCO)Nc1ccccc1C(=O)Nc1ccccc1	·	-0.95
CC1(C)CC(=O)C2=C(C1)NC1=C(C(=O)CC(C)(C)C1)C2c1ccccc1C(F)(F)F	32	0.15
CCCN1CCN(c2ncnc3sc(C(=O)Nc4ccccc4OCC)c(C)c23)CC1	0.03	·
O=C(/C=C/c1ccccc1)c1ccc(O[C@@H]2O[C@H](CO)[C@@H](O)[C@H](O)[C@H]2O)cc1O	·	1.6
CN(C)c1ccc(C2OC(=O)C(C)(C)C(=O)C2(C)C)cc1 (configuration not stated)	0.26	-0.25
Cc1ccc2n1CCN(c1nc(-c3ccc(Cl)cc3)cs1)C2C (configuration not stated)	0.11	0.1
CCc1ccccc1NCc1c(CO)cnc(C)c1O	-1.4	0.15
CCN(CC(=O)Nc1ccccc1N1CCOCC1)CC(=O)NC1CCS(=O)(=O)C1 (configuration not stated)	·	-0.1
COc1cccc(C(=O)NCCS(=O)(=O)NC2CCCC2)c1	·	-0.4
CCOC(=O)c1cc(-c2ccc(OC)c(S(=O)(=O)NC3CCCc4ccccc43)c2)on1 (configuration not stated)	-0.2	0.65
NS(=O)(=O)c1ccc(C23CC4CC(CC(C4)C2)C3)cc1	0.89	1.9
COc1ccc(C(=O)COC(=O)C(Cc2c[nH]c3ccccc23)NC(=O)c2ccc(Cl)cc2)cc1 (configuration not stated)	-0.47	·
CC(=O)NC(CC(=O)Nc1ccc2c(c1)OCCO2)c1ccccc1 (configuration not stated)	·	-0.45
CCN(CC)c1ccc2nc3c(nc2c1)C(=O)c1ccccc1C3=O	0.27	0.65
CCCC1=NN(C(=O)c2ccc(C(C)(C)C)cc2)C(O)(C(F)(F)F)C1 (configuration not stated)	-0.97	·
C/C(=N/O)C12CCCC(CCC1)C2	-0.65	-0.25
Cc1nn(-c2ccccc2)c2sc(C(=O)NCCN3CCOCC3)cc12	1.3	0.95
COC(=O)c1nnn(CC(=O)N(Cc2ccccc2)c2ccc(Br)cc2)c1C(=O)OC	-0.78	0.1
CCOC(=O)c1c(C)n(-c2ccccc2)c2c1cc(OC(=O)C(C)C)c1ccccc12	0.35	·
Cc1onc(-c2ccccc2)c1C(=O)OCCN1C(=O)c2ccccc2C1=O	·	-1.1
COc1ccc(NC(=O)C(CCS(C)(=O)=O)N2Cc3ccccc3C2=O)c(OC)c1 (configuration not stated)	-0.2	-0.9
COc1cc2nc(=S)n3c(c2cc1OC)NC(CCC(=O)NCCc1ccc(Cl)cc1)C3=O (configuration not stated)	0.095	1.8
O=[N+]([O-])c1cc(C(F)(F)F)ccc1NCCCn1ccnc1	-1	·
CC12CC[C@H]3[C@@H](CCC4(O)C[C@H](O)CCC34/C=N\NC(=O)c3cccc(NC(=O)c4ccc(F)cc4)c3)C1(O)CCC2C1=CC(=O)OC1 (some centres not stated)	-0.34	·
O=C(c1cc(-c2ccc(Br)cc2)nc2ccccc12)N1CCOCC1	0.3	·
CC1(C)C2CCC(COC(=O)N3CCc4c([nH]c5ccccc45)C3)C1C2 (configuration not stated)	1.2	·
CCC(C(=O)NC1CCC(C)CC1)n1sc2ccccc2c1=O (configuration not stated)	-2.1	0.25
Cc1ccc(C(C)n2cc(C(=O)NCc3ccccn3)nn2)cc1 (configuration not stated)	-0.26	-0.45
Nc1c(S(=O)(=O)c2ccccc2)c2nc3ccccc3nc2n1CCNC(=O)c1cccs1	·	-0.35
Cc1ccc(S(=O)(=O)c2c[nH]c(=O)[nH]2)cc1	0.005	-0.2
O=C(OCC(=O)N1CCOCC1)c1ccc2ccccc2c1	·	-0.3
CCCCC(=O)Nc1c(-c2ccc(OC)cc2)nc2ccccn12	69	-0.45
Oc1ccc(-c2ncc(-c3ccncn3)c(-c3ccccc3Cl)n2)cc1	6.2	·
Cc1ccc(SCC(=O)c2ccc(Cl)cc2)cc1	0.05	-0.6
CC(=O)Nc1cc(-c2ccc([N+](=O)[O-])cc2)[nH]n1	-0.74	·
COc1ccc(C2NC(=O)NC(C)=C2C(=O)Nc2ccc(F)c(F)c2)c(OC)c1 (configuration not stated)	-0.3	·
CCn1cc2c(n1)-c1c(oc(C(=O)Nc3ccc(Cl)cc3)c1C)CC2	0.41	0.05
COc1ccc(N(CC(O)Cn2c3ccccc3c3ccccc32)S(=O)(=O)c2ccc(Cl)cc2)cc1 (configuration not stated)	1.9	·

Continued, overlapping the part above by 5 compounds.
SMILES	CapD inh	AID504770
Cc1ccc(SCC(=O)c2ccc(Cl)cc2)cc1	0.05	-0.6
CC(=O)Nc1cc(-c2ccc([N+](=O)[O-])cc2)[nH]n1	-0.74	·
COc1ccc(C2NC(=O)NC(C)=C2C(=O)Nc2ccc(F)c(F)c2)c(OC)c1 (configuration not stated)	-0.3	·
CCn1cc2c(n1)-c1c(oc(C(=O)Nc3ccc(Cl)cc3)c1C)CC2	0.41	0.05
COc1ccc(N(CC(O)Cn2c3ccccc3c3ccccc32)S(=O)(=O)c2ccc(Cl)cc2)cc1 (configuration not stated)	1.9	·
CN1C(=O)/C(=C/c2ccc(C(=O)NCC(=O)O)cc2)SC1=S	·	0.65
COc1ccc(NC(=O)CSc2nnc(C)s2)cc1OC	-0.095	·
C/C(=N\N=C(/N)SCc1ccc(Cl)cc1Cl)c1ccc(C)cc1	-0.015	·
CC1CCCN(C(=O)Cn2c3ccccc3c3nc4n(c(=O)c32)CCS4)C1 (configuration not stated)	·	-0.45
CC(=O)Nc1ccc(C(C)=C(C#N)C#N)cc1	-0.23	·
Cc1ccc(-c2cc(C(=O)NCC3CCCO3)c3ccccc3n2)c(C)c1 (configuration not stated)	7.3	·
CCOC(=O)c1cc(C#N)c(N2CCN(C(=O)C(NC(=O)Cc3c[nH]c4ccccc34)C(C)C)CC2)nc1C(F)(F)F (configuration not stated)	0.89	·
Cc1noc(C)c1S(=O)(=O)NC(C)(C)C	-0.17	1.4
Cc1cc(C(=O)COC(=O)C23CC4CC(CC(O)(C4)C2)C3)c(C)n1C1CC1	·	-0.1
O=C(CO)Nc1cc(Cl)ccc1Cl	·	0.8
CCOc1ccc(NC(=O)N2CCC(CN3CCOCC3)CC2)cc1	-0.16	-1.3
O=C([C@@H]1CCCN1S(=O)(=O)c1ccc(Cl)cc1)N1CCN(c2ccccc2)CC1	·	-0.35
c1ccc(-c2c(-c3ccccc3)n(Cc3ccco3)c3ncnc(NCCCn4ccnc4)c23)cc1	43	-0.75
C=CCn1c(=O)c2c(nc3n2CCN3c2ccc(F)cc2)n(C)c1=O	-0.07	-0.55
O=C(Oc1cccc(NC(=O)c2cccs2)c1)c1cccc(S(=O)(=O)N2CCOCC2)c1	-0.41	-0.35
CC1CCCCC1NS(=O)(=O)c1ccc(F)c(C(=O)Nc2cccc(Cl)c2)c1 (configuration not stated)	-0.34	·
CC1(C)CC(=O)/C(=C(\O)Cc2ccccc2)C(=NCc2ccccc2)C1	-0.45	0.45
COCC(=O)n1nc(-c2ccco2)nc1NCc1ccccc1	0.6	-0.55
Fc1ccc(-c2nc(-c3ccc(C(F)(F)F)nc3)ncc2-c2ccncn2)cc1	-0.23	·
CC1(C)CC(=O)/C(=C/c2ccccc2)C(C)(C)N1	-0.24	-0.35
CN(C(=O)c1cccc(OC(F)F)c1)C1CCCCC1	·	0.1
COC(=O)c1c(-c2c(Cl)cccc2Cl)noc1C(=O)NN	0.005	-0.8
O=C(/C=C/c1ccccc1)NCCc1nc2ccccc2[nH]1	-0.26	-0.9
COc1ccc(CCN2CNc3c(c(=O)n(C)c(=O)n3C)C2)cc1OC	-0.44	·

Rows are unselected. About 0.37% of those tested had a hit in this group.
